# 2A StopGo: High Throughput Screening for Foot and Mouth Disease Virus Antivirals; hit rate 1.2% among 410,000; human cells with a luciferase reporter of 2A StopGo recoding; control for the full effect not named in the record; Potency, µM (series often up to 57.9 µM), without a hit: at the top dose signal change, negative = less light; AID 1159524, 2015; active = well fitted falling curve with a large enough effect; inconclusive = small, poorly fitted or top-dose-only effect; inactive = no such curve, though single readings can be large or run the other way; tested in HEK293T cells; also: % is scaled to controls: 0 for no effect and ±100 for the full control effect; nearly all actives have a fitted effect of over 45% in size; luciferase light after 4 h
# RE007 growth inh: qHTS Assay for Inhibitors of the HIV-1 protein Vpr; S. pombe RE007 Vpr strain, BacTiter-Glo ATP luminescence, 24 h; control for the full effect not named in the record; Potency, µM (top dose mostly 92.2 µM), for inactives: top-dose activity change, negative = less growth; hit rate 0.21% among 360,000; active = well fitted falling curve with a large enough effect; inconclusive = small, poorly fitted or top-dose-only effect; inactive = no such curve, though single readings can be large or run the other way;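 also: % is scaled to controls: 0 for no effect and ±100 for the full control effect; nearly all actives have a fitted effect of over 50% in size; the assay follows cell death caused by Vpr and the record does not say whether a fall means rescue or toxicity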
#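 Fission yeast RE007 carrying one integrated HIV-1 vpr copy, seeded at OD 0.01 in PMG+AL medium with 23 nL pinned compound. Grown 24 h at 30 degrees; viability read by BacTiter-Glo luminescence after 5 min.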
# Cruzain inh Det: qHTS Assay for Promiscuous and Specific Inhibitors of Cruzain (with detergent); hit rate 0.43% among 200,000; Potency, µM, inactives show max response, negative = inhibition, hits mostly inhibitors; Cruzipain (Trypanosoma cruzi), P25779; purified cruzain, Z-FR-AMC fluorescence, 0.01% Triton;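 also: plate controls were neutral wells for no effect and buffer without enzyme for full effect; nearly all actives have a fitted effect of over 40% in size; top concentration of the series not given in the record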
# Target sequence (P25779 123-467 limits assumed): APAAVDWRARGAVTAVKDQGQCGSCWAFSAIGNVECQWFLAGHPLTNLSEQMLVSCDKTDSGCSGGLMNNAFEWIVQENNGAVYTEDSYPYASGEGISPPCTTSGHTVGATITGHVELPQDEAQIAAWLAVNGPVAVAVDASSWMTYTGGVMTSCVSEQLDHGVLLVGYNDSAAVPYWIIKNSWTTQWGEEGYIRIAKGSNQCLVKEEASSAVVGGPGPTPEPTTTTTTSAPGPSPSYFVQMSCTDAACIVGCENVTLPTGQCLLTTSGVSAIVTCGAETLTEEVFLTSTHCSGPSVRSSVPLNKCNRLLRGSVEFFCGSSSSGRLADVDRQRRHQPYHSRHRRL
#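 Read-out: AMC fluorescence (360 nm excitation, 450 nm emission), four reads over 2 min, first-to-third difference used. Conditions: cruzain 1.5 nM, Z-FR-AMC 2 uM, pH 5.5 acetate, 5 mM DTT, 0.01% Triton X-100.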
# Marburg entry inh: qHTS for inhibitors of binding or entry into cells for Marburg Virus; Marburg virus pseudotyped entry inhibition, cell reporter; control for the full effect not named in the record; about a third of the inactives were read at about 46 µM; Potency, µM (doses to about 37.8 µM), for the others: at the top dose activity change, negative = inhibition, hits mostly inhibitors; hit rate 1.8% among 300,000; active = well fitted inhibition curve with a large enough effect; inconclusive = small, poorly fitted or top-dose-only effect, or effect the other way; inactive = flat fitted curve, though single readings scatter; tested in HEK293 cells; about a fifth of its hits are not listed in these tables; also: % is scaled to controls: 0 for no effect and ±100 for the full control effect; luciferase read-out
# SARS PLpro yeast: qHTS of Yeast-based Assay for SARS-CoV PLP; Potency, µM (top dose mostly 32.9 µM), for the others: top-dose activity, positive = growth rescue; hit rate 0.19% among 330,000; S. cerevisiae expressing SARS-CoV PLpro, growth rescue; control for the full effect not named in the record; active means well fitted rising curve with a large enough effect; inconclusive means small, poorly fitted or top-dose-only effect; inactive means no such curve, though single readings can be large or run the other way; also: 0% is about no effect; nearly all actives have a fitted effect of over 55% in size; growth read by luminescence after 48 h
# NS1 inh: qHTS Assay for Inhibitors of Influenza NS1 Protein Function; Potency, µM (top dose mostly 46.1 µM), without a hit: at the highest dose activity, positive = more growth; hit rate 0.4% among 270,000; S. cerevisiae slowed by influenza A NS1, growth recovery by OD600; active means well fitted rising curve with a large enough effect; inconclusive means small, poorly fitted or top-dose-only effect; inactive means no such curve, though single readings can be large or run the other way; also: nearly all actives have a fitted effect of over 50% in size
#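 Recovery from NS1-induced slow growth read by OD600 in budding yeast switched to galactose assay medium (pH 6.0, -URA) at 1:100 dilution. Compound 23 nl per well; the matching strain lacking NS1 serves as control.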
# Cruzain noTriton: qHTS Assay for Promiscuous and Specific Inhibitors of Cruzain (without detergent); purified cruzain, Z-FR-AMC fluorescence, no detergent; Potency, µM, inactives show max response, negative = inhibition, hits mostly inhibitors; hit rate 2.3% among 200,000;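 also: plate controls were enzyme without inhibitor for no effect and buffer without enzyme for full effect; nearly all actives have a fitted effect of over 40% in size; top concentration of the series not given in the record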
#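 Purified cruzain at 1.5 nM, pre-incubated 15 min with compound at room temperature in 100 mM sodium acetate pH 5.5, 5 mM DTT, 0.00005% Triton X-100. Reaction started with 2 uM Z-FR-AMC; AMC fluorescence increase over 60 s gives rate.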
# Lassa entry inh: qHTS for Inhibitors of binding or entry into cells for Lassa Virus | Lassa virus pseudotype entry inhibition, cell reporter; control for the full effect not named in the record | Potency, µM (series often up to 37.9 µM), for the others: at the highest dose activity change, negative = inhibition, usual class: inhibitors | hit rate 1.2% among 300,000 | AID 540256, 2011; active means well fitted inhibition curve with a large enough effect; inconclusive means small, poorly fitted or top-dose-only effect, or effect the other way; inactive means flat fitted curve, though single readings scatter; tested in HEK293 cells; also: % is scaled to controls: 0 for no effect and ±100 for the full control effect; nearly all actives have a fitted effect of over 50% in size; luciferase read-out
# Numbers without * were called inactive; ? = inconclusive; nt = not tested or not shown; & = joins results of further samples; [ ] = another dose, or the depositor's remark. Unless noted, calls follow the shape of the dose curve; as a rule, active = well fitted curve in the direction sought with a large enough effect; inconclusive = small, poorly fitted or top-dose-only effect, or another doubt; inactive = no such curve, though single readings can be large; an effect the other way counts as inactive or inconclusive. Potency is read from the fitted curve at half-maximal effect.
# Results follow in this order: 2A StopGo	RE007 growth inh	Cruzain inh Det	Marburg entry inh	SARS PLpro yeast	NS1 inh	Cruzain noTriton	Lassa entry inh
Cn1nnc2cc(C(=O)N3CCCCCC3)ccc21
→ 12%	3%	-0.5%	2%	22%	-2%	-17%	13%
CCC(C)NC(=O)c1ccccc1NC(=O)C1COc2ccccc2O1 (stereo not drawn)
→ ?	-2%	nt	nt	-2%	6%	nt	nt
Cc1onc(-c2ccccc2Cl)c1C(=O)NC(=S)NCCc1ccccc1
→ -25%	6%	-6.5%	-11%	-13%	24%	-4%	?
Cc1ccc(CNC(=O)C(CC(C)C)NS(=O)(=O)c2ccc3c(c2)oc(=O)n3C)cc1 (stereo not drawn)
→ -15%	nt	-0.9%	-1%[46.1 µM]	nt	nt	4%	-7%[46.1 µM]
O=C(CS(=O)(=O)c1cccc2nsnc12)NCc1ccccc1
→ -29%	nt	-2.3%	nt	nt	nt	7%	0%[46.1 µM]
O=C(NNC(=O)c1oc2ccccc2c1-n1cccc1)c1ccco1
→ -21%	5%	nt	-6%[46.1 µM]	-1%	-1%	nt	3%[46.1 µM]
CCc1nnc(NC(=O)C2CSC3(C)CCC(=O)N23)s1 (stereo not drawn)
→ -4%	0%	nt	7%[46.1 µM]	-1%	nt	nt	4%
Cc1cccc(C(=O)NC2CC3CCC(C2)N3C)c1 (stereo not drawn)
→ -9%	3%	nt	21%	-5%	nt	nt	4%
CC(=O)c1ccccc1NC(=O)c1ccc(N2CCCC2=O)cc1
→ -8%	-4%	nt	5%[46.1 µM]	-1%	nt	nt	11µM*
COc1ccc(N2CCN(C(=O)c3ccc4c(=O)n5c(nc4c3)CCCCC5)CC2)cc1
→ -10%	-1%	nt	nt	-13%	0%	nt	nt
O=C(NCC1CCN(c2ccc(S(=O)(=O)N3CCOCC3)cc2)CC1)c1ccc(Cl)cc1
→ 40µM*	4%	0.7%	?	1%	-52%	3%	?
O=C(Nc1ccncc1)c1cc2ccccc2o1
→ -29%	?	-3.2%	-10%	-11%	-91%	-2%	13%
COc1cccc(COC(=O)CSCC(=O)Nc2cccc(C)c2)c1OC
→ -11%	-16%	nt	29%	0%	nt	nt	0%
O=C(O)c1ccc(CNC(=O)C2CCCN2C(=O)OCc2ccccc2)cc1 (stereo not drawn)
→ -5%	8%	nt	nt	0%	5%	nt	nt
COc1ccc(C2C(C(C)=O)=C(O)C(=O)N2c2cccnc2)c(OC)c1 (stereo not drawn)
→ 39%[activator]	21%	-1.1%	7%	0%	16%	-8%	-5%
COc1ccc(NC(=O)c2cccc(S(=O)(=O)N(C)c3ccccc3)c2)cn1
→ 35µM*	12%	-4.4%	-30%	7%	-26%	-1%	?
CN(CC(=O)Nc1ccc(F)c(F)c1F)C(=O)C1CCN(C(=O)Nc2ccccc2)CC1
→ 3%	8%	nt	8%	11%	nt	nt	16%
CSc1nc2ccc(S(=O)(=O)N3CCc4ccccc43)cc2s1
→ ?	-14%	-5.2%	-20%	-2%	-14%	-26%	?
O=C(Cc1ccccc1[N+](=O)[O-])N1CCN(S(=O)(=O)c2ccccc2)CC1
→ -25%	7%	nt	1%	-2%	8%	nt	-4%
O=C(O)c1cccc(-n2nc(-c3ccc(Cl)c([N+](=O)[O-])c3)c3ccccc3c2=O)c1
→ -10%	-4%	nt	?	?	-1%	nt	-19%[46.1 µM]
CCc1ccc(S(=O)(=O)c2c(C(=O)c3ccccc3)cnc3ccc(CC)cc23)cc1
→ 12%	nt	-2.9%	?	nt	nt	?	nt
O=C(c1ccccc1)N1CCC(c2nc(-c3ccc(S(=O)(=O)N4CCOCC4)cc3)no2)CC1
→ ?	-5%	4.4%	-25%	3%	-8%	?	?
CC(C)(CNC(=O)CCC1CCCC1)CNC(=O)CCC1CCCC1
→ -1%	-10%	nt	nt	-6%	-18%	nt	nt
O=C(N/N=C/c1cccnc1)c1ccccc1Cl
→ 38%[activator]	-5%	nt	nt	1%	0%	nt	nt
O=C(c1ccccc1Br)N1CCC(c2nc3ccccc3s2)CC1
→ ?	5%	nt	nt	-2%	-32%	nt	nt
Cc1ccc(S(=O)(=O)C2CCCCC2=O)cc1 (stereo not drawn)
→ 13%	7%	-0.2%	19%	0%	3%	2%	21%
O=C(c1cc2nc(-c3cccs3)cc(C(F)(F)F)n2n1)N1CCCc2ccccc21
→ 0%	24%	-4.8%	?	-6%	-2%	-1%	?
CCOC(=O)c1ccn(-c2nc(-c3ccco3)cc(C(F)(F)F)n2)n1
→ ?	-5%	-2.5%	nt	-1%	-4%	20%	nt
NC(=O)c1ccc(C(=O)N/N=C/c2cccc(Oc3ccccc3)c2)cc1
→ -9%	6%	nt	11%[46.1 µM]	5%	10%	nt	-23%[46.1 µM]
Cc1ccc(N2CN(CCC3=CCCCC3)CNC2=S)cc1
→ -15%	-2%	nt	nt	2%	1%	nt	nt
CNC(=O)c1cc2c(=O)n3cc(C)ccc3nc2n(C(C)C)c1=N
→ -19%	-6%	28µM*	10%	8%	-3%	?	-8%
Cc1ccc(NC(=O)c2c(C)oc3ccc(O)c(CN4CCCC4)c23)c(C)c1
→ -10%	nt	-1.9%	-12%[46.1 µM]	nt	nt	-14%	25%[46.1 µM]
CNC(=S)Nc1ccccc1-c1ccccc1
→ -2%	0%	-2.5%	15%	3%	-12%	3%	7%
COc1ccc(OC)c(NS(=O)(=O)c2ccc(NC(=O)c3ccc(NS(C)(=O)=O)cc3)cc2)c1
→ -11%	12%	-3.7%	?	8%	1%	-11%	-15%
C=CCOC(=O)C1=C(C)OC(N)=C(C#N)C1c1ccccc1F (stereo not drawn)
→ -8%	22%	1.2%	30%	3%	-4%	-4%	0%
O=C1C2C3CC(C(Br)C3Br)C2C(=O)N1CC1CCCO1 (stereo not drawn)
→ -17%	9%	nt	?	0%	0%	nt	21%
O=C(Cn1nnc(-c2ccccc2Cl)n1)N1CCCCC1
→ 17%	12%	nt	?	0%	7%	nt	-2%[46.1 µM]
COc1ccc(/C(CC2OC(=O)c3ccccc32)=N\NC(N)=O)cc1 (stereo not drawn)
→ 11%	9%	nt	2%[46.1 µM]	0%	-7%	nt	6%
Cc1cc(C)cc(NC(=O)NCc2noc3ccccc23)c1
→ 9%	nt	-3.9%	nt	nt	nt	1%	3%[46.1 µM]
CCN(CC)S(=O)(=O)c1ccc(N2CCN(C)CC2)c(NC(=O)c2cc(=O)c3ccccc3o2)c1
→ -8%	1%	nt	7%[46.1 µM]	-2%	9%	nt	6%[46.1 µM]
CCN(CC)C(=O)c1sc2c(c1C)c(=O)n(-c1ccc(Cl)c(Cl)c1)c(=O)n2CC(=O)Nc1cccc(OC)c1
→ -13%	nt	0.7%	nt	nt	nt	-18%	-22%[46.1 µM]
O=C(NCc1ccco1)c1cc2ccccc2c(=O)o1
→ 31%[activator]	-27%	-11%	20%	-9%	3%	-8%	?
COc1cccc2sc(N3CCN(C(=O)c4cccs4)CC3)nc12
→ -21%	-23%	nt	30%	4%	nt	nt	1%[46.1 µM]
O=C(Oc1ccc(-n2cnnn2)cc1)c1ccccc1
→ -17%	13%	nt	?	0%	-2%	nt	1%
CCCCNC1CCS(=O)(=O)C1 (stereo not drawn)
→ nt	-4%	6.9%	3%	10%	5%	-4%	9%

# Reprinted at random: five records from the list.
# Results follow in this order: 2A StopGo	RE007 growth inh	Cruzain inh Det	Marburg entry inh	SARS PLpro yeast	NS1 inh	Cruzain noTriton	Lassa entry inh
Cc1ccc(NC(=O)c2c(C)oc3ccc(O)c(CN4CCCC4)c23)c(C)c1
→ -10%	nt	-1.9%	-12%[46.1 µM]	nt	nt	-14%	25%[46.1 µM]
CCCCNC1CCS(=O)(=O)C1 (stereo not drawn)
→ nt	-4%	6.9%	3%	10%	5%	-4%	9%
O=C(Oc1ccc(-n2cnnn2)cc1)c1ccccc1
→ -17%	13%	nt	?	0%	-2%	nt	1%
COc1ccc(OC)c(NS(=O)(=O)c2ccc(NC(=O)c3ccc(NS(C)(=O)=O)cc3)cc2)c1
→ -11%	12%	-3.7%	?	8%	1%	-11%	-15%
Cc1cc(C)cc(NC(=O)NCc2noc3ccccc23)c1
→ 9%	nt	-3.9%	nt	nt	nt	1%	3%[46.1 µM]

# Other results:
# Results follow in this order: 2A StopGo	RE007 growth inh	Cruzain inh Det	Marburg entry inh	SARS PLpro yeast	NS1 inh	Cruzain noTriton	Lassa entry inh
COc1cccc(-c2cc(C(=O)NCCc3ccccc3)no2)c1
→ -5%	-13%	3.5%	12%	8%	-1%	1%	-23%
CCOC(=O)CC(=O)CSc1nc(C)nc2c1oc1ccccc12
→ 2%	-18%	-0.6%	-6%	-2%	-4%	26%	-3%
O=C(Nc1ccc2c(c1)OCO2)c1nn(-c2ccccc2)c(=O)c2ccccc12
→ -12%	-15%	0.0%	-8%	-2%	-15%	-4%	?
O=C1N(CN2CCN(Cc3ccccc3)CC2)c2ccccc2C12OCCCO2
→ 6%	1%	nt	?	2%	nt	nt	3%
COCC(C)n1c(C)cc(C(=O)COC(=O)c2n[nH]c3ccccc23)c1C (stereo not drawn)
→ ?	-1%	-0.1%	?	0%	2%	20%	?
CC(C)CC(=O)Nc1nnc(CSCc2ccc(F)cc2)s1
→ -10%	-9%	nt	nt	0%	-3%	nt	nt
O=C(CN1C(=O)NC2(CCCc3ccccc32)C1=O)NCC(F)(F)F (stereo not drawn)
→ 12%	10%	nt	-15%[46.1 µM]	-2%	-3%	nt	5%
O=C(c1cnn2c(C(F)F)cc(-c3ccccc3)nc12)N1CCSCC1
→ 5%	4%	-4.6%	-27%&-27%	-19%	-6%	9%	-1%

# High-throughput results from PubChem.
